Bioassay records as filed in PubChem BioAssay.
T cruzi inh – blocks replication of Trypanosoma cruzi | T. cruzi beta-gal in NIH3T3, luminescence, 90 h | inhibition, % (no concentration beside the values) | actives 1.4% (n = 300,000) | AID 1885;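 active means mean inhibition across valid replicates above about 55%, limit read from the data; inconclusive means mean below that limit but half or more replicates reach it; inactive means mean below it, under half of replicates reach it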;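 further: signal also drops with host cell toxicity which is not excluded here; 0% = plate median of DMSO wells and 100% = zero luminescence signal; higher percent means less beta-gal luminescence so fewer parasites; stock transfer was 50 nL into about 50 µL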
UCH37 inh – blocks the human deubiquitinase UCH37. Q9Y5K5. purified proteasome/UCH37, Ub-AMC cleavage fluorescence. inhibition, % (test concentration not listed). actives 0.33% (n = 330,000);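 active means mean of two replicates above 20%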;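 further: 0% = compound-free wells with enzyme and 100% = wells lacking proteasome; stock transfer was 100 nL into about 20 µL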
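Signal – fluorescence, ex 355 nm, em 460 nm · System – Proteasome-bound UCH37 · Input – 0.15 nM proteasome as dispensed · Timing – 30 min preincubation with enzyme, 25 min cleavage at room temperature · Read-out basis – percent inhibition of cleavage signal versus uninhibited and no-proteasome wells · Medium – Tris-HCl pH 7.4 with ATP-MgCl2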
Ecoli growth – E. coli growth inhibition; Escherichia coli growth, OD600, 23 h; active compounds read low; OD600 absorbance (test concentration not listed); actives 0.21% (n = 330,000);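 active means OD600 absorbance below the run mean of sample wells minus 3.6 SD, in any replicate, cut at about 0.56 in these data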;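 further: stock transfer was 300 nL into about 60 µL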
FGF22 binding – binders of recombinant human FGF22 by thermal shift | Q9HCT0 | SYPRO orange fluorescence; percent of sucrose octasulfate shift, DMSO zero | calls only at 9.99 µM | actives 1.5% (n = 340,000);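 active means melting point raised past a set limit in the mean and every replicate; inconclusive means no clear call; three in four hits are not shown here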
Target sequence (Q9HCT0 whole entry, looked up): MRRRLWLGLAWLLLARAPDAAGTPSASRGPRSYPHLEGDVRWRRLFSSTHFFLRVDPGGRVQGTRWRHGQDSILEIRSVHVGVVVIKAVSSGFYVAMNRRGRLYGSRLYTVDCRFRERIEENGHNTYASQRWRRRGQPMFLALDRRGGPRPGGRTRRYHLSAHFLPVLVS
A1 inh – inhibitors of the anti-apoptotic protein A1, read as caspase activation | actives 0.066% (n = 330,000) | caspase activation, % (no concentration beside the values) | MEF A1-2A-BIM cells, Caspase-Glo 3/7 luminescence, 3 h; percent of clofoctol response, vehicle zero | AID 2462;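 active means over half of replicate activation scores above 10%, or exactly half above 10 with the replicate mean above 10; inconclusive means replicate mean below 10 yet half the replicates above 10; inactive means over half of replicates below 10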;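 further: wells of about 30 µL received 50 nL stock; many hits fall short of the cut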
AF4-AF9 inh – MLL-AF4/AF9 protein interaction inhibition; actives 0.47% (n = 350,000); AlphaScreen, biotin-AF4 peptide binding to FLAG-AF9; inhibition, % at 10 µM; AID 651704;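 active means every replicate reaching a set inhibition limit, whatever the replicate mean, cut at about 25% in these data; inconclusive means mean inhibition reaches that limit but some replicates miss it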;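 further: 0% = plate neutral control median and 100% = total signal loss; the record names both 10 and 1 µM as test concentration; the first replicate is given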
Target sequence (P42568 whole entry, looked up): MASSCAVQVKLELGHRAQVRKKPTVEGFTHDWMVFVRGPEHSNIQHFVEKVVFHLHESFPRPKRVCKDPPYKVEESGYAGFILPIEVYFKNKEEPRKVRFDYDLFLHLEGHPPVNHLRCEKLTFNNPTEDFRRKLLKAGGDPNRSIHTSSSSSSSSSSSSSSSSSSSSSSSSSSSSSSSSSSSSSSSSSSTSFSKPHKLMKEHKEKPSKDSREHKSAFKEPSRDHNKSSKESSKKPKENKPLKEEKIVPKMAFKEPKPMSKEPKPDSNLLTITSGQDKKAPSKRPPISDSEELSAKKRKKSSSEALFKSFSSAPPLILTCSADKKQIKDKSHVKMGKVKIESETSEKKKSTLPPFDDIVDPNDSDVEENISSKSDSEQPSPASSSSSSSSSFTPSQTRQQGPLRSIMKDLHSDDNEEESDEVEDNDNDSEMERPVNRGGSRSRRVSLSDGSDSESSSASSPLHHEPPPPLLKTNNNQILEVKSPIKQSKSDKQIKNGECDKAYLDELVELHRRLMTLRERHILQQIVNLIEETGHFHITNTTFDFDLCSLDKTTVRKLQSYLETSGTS
Ecoli rRNA inh – inhibitors of bacterial rRNA selective over humanized ribosomes; E. coli WT GFP vs humanized-ribosome RFP mutants, fluorescence, 24 h; active compounds read low; DMSO median 0, no signal -100; GFP signal change (wild-type ribosome), % (test concentration not listed); actives 1.6% (n = 350,000); AID 720706;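 active means significant combined selectivity score with lowered wild-type GFP, culture density cut under 30%, mutant RFP and density less affected; inactive means any of these conditions unmet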; further: one replicate is shown; some compounds called inactive have numbers as strong as hits
Beta apoptosis – beta cell apoptosis inhibition; actives 0.8% (n = 300,000); INS-1E cytokine-induced death, ATP luminescence, 48 h; percent of positive-control rescue, neutral wells zero; protection from apoptosis, % (concentration not given with the values); AID 435005;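 active means all replicates at 75% or more, or half of them and the mean; inconclusive means half reach 75% but not the mean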;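 further: 0% = cytokine-treated negative control wells and 100% = positive control rescue; higher means more ATP so stronger rescue from cytokine killing; wells of about 40 µL received 100 nL stock; the first replicate is given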
Ecoli rRNA inh OD600 – second read-out of Ecoli rRNA inh, no call of its own (marks repeat the call); OD600 change, %; measured here: OD600 growth;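 optical density of the mix in the first replicate; 0 = DMSO median and -100 = no signal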
Ecoli rRNA inh RFP – second read-out of Ecoli rRNA inh, no call of its own (marks repeat the call); RFP signal change, %; measured here: RFP humanized mutant strains;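 first replicate; 0 = DMSO median and -100 = no signal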
Numbers without * were called inactive; i = inactive; ? = inconclusive; . = no result given.

mol,Ecoli rRNA inh RFP,Ecoli growth,Ecoli rRNA inh OD600,UCH37 inh,FGF22 binding,A1 inh,AF4-AF9 inh,Ecoli rRNA inh,Beta apoptosis,T cruzi inh
Cc1cc(S(=O)(=O)Nc2ccc3cn[nH]c3c2)c(C)cc1Cl,-16,0.63,-75,5.3,i,0.0,1.6,-52,2,?
CC1(CCC(=O)N2CCCC(N3CCN(c4ccc(F)cc4)CC3)C2)CC1 (centres undefined),0.0*,0.7,-15*,6.7,i,-0.5,2.4,-25*,1,35
Cc1cccc(C(=O)NCC(=O)OCC(=O)c2ccc(C)s2)c1,1.2,0.67,7,3.9,i,-1.5,-0.6,-1,0,.
CC(C)CCNC1c2ccccc2C(=O)N1Cc1ccccc1 (centres undefined),2.6,0.68,3,1.2,i,-0.6,0.3,1,.,6
O=C(Nc1cccc(S(=O)(=O)N2CCOCC2)c1)c1ccc(N2CCCC2=O)cc1,.,0.63,.,-0.3,i,0.1,-0.8,.,-1,.
Cc1cc(C(=O)NC2CCCc3c2cnn3-c2cccc(C)c2C)c(C)o1 (centres undefined),2.1,0.69,-17,-0.4,.,0.7,2.3,-9,42,45
O=C(NCc1ccccn1)C(F)(F)C(F)(F)C(=O)NCc1ccccn1,.,0.7,.,5.3,.,0.0,.,.,2,-9
COc1ccccc1N1CCN(S(=O)(=O)c2cn(C)cn2)CC1,1.2,0.68,8,0.9,i,0.3,-0.7,0,-1,-15
O=C1C(Cc2cccc([N+](=O)[O-])c2)SC(=Nc2ccccc2)N1c1ccccc1 (centres undefined),.,0.72,.,0.2,.,1.4,.,.,.,0
CCCN1CCN(C(=S)NCc2ccc(Cl)cc2)CC1,-7.5,0.67,-9,0.0,i,0.1,0.5,-5,1,8
c1ccc(OCc2cc(-c3ccccc3)no2)cc1,-3.4,0.63,-6,3.5,i,1.7,-0.5,-4,2,13
Cc1ccc(C2C(C#N)=C(N)Oc3n[nH]c(-c4cccnc4)c32)o1 (centres undefined),2.5,0.71,10,1.1,i,0.3,-0.8,8,-9,1
CCc1ccc(N2CC(C(=O)Nc3ccc(S(=O)(=O)Nc4ncccn4)cc3)CC2=O)cc1 (centres undefined),-1.4,0.65,-8,1.2,i,0.0,-4.1,-7,-6,-1
CC(NS(=O)(=O)CCNC(=O)c1ccccc1)c1ccccc1 (centres undefined),-0.4,0.62,3,0.4,i,0.6,-0.4,14,0,-5
CCN(C[C@H]1N[C@@](CC)(C(=O)OC)[C@H]2C(=O)N(Cc3ccccc3)C(=O)[C@@H]12)S(=O)(=O)c1ccc(C(C)(C)C)cc1,-7.2,0.73,8,2.4,i,-0.1,-5.0,2,12,.
CC(C)OCCCNC1=C(Cl)C(=O)c2ccccc2C1=O,-4.4,0.67,-62,14,i,-2.0,15,-45,.,-8
COc1cccc(C2=NOC(C(=O)N3CCN(c4ccccc4)CC3)C2)c1OC (centres undefined),6.6,0.78,-17,4.9,i,0.0,-3.7,-7,4,-6
O=C(Nc1cccc([N+](=O)[O-])c1)c1cc2ccccc2cc1O,-13,0.66,-41,3.5,i,-4.8,-3.7,-49,100*,-10
OCC1(Cc2ccc(Cl)cc2)CCN(CC2CC=CCC2)CC1 (centres undefined),9.6,0.72,-7,1.6,i,1.2,2.1,-11,-3,25
Cc1cc(Cl)ccc1N1C(=O)CC(NNC(=O)c2cccnc2)C1=O (centres undefined),.,.,.,-1.2,.,0.3,.,.,-7,-18
O=C(N/N=C/c1cccc([N+](=O)[O-])c1)c1ccncc1,2.1,.,-4,.,i,0.0,2.4,-1,1,-14
CN1CCc2nc(SC(C(=O)O)c3ccccc3)c(C#N)c(-c3cccs3)c2C1 (centres undefined),2.3,0.68,5,6.2,i,-1.6,-1.9,6,2,64*
CC(C)N(CCCNC(=O)C1CCN(C(=O)c2cc3sccc3n2C)CC1)Cc1ccccc1,-0.7,0.62,2,1.4,i,0.0,7.2,5,-4,33
COc1ccc(C(=O)Nc2ccc(S(=O)(=O)Nc3cc(C)nc(C)n3)cc2)cc1OC,-2.1,0.6,17,0.1,i,-1.4,-1.9,12,0,-9
Cc1sc2ncnc(N3CCN(S(=O)(=O)c4ccccc4)CC3)c2c1C,.,0.7,.,4.3,.,-1.1,.,.,99*,.
CC(c1ccon1)N(C)Cc1cn(Cc2ccccc2)nc1-c1ccc2c(c1)OCO2 (centres undefined),-2.5,0.65,-26,4.1,i,0.7,8.2,-18,-2,18
COc1ccc(CCNC(=O)c2ccccc2NC(=O)C2=C(C)OCCS2)c(OC)c1,-0.9,0.68,2,2.6,i,-0.1,14,0,1,10
CCOC(=O)c1ccc(N(CC(=O)NC2CCCC2)C(=O)CNC(=O)c2ccco2)cc1,.,0.72,.,4.4,.,2.0,.,.,.,6
COc1ccc(-c2cc3c(=O)n(CC(=O)Nc4cccc(Cl)c4)nc(C)n3n2)cc1,-0.5,.,6,.,i,0.6,0.3,4,.,-14
COC(=O)c1cccc(NC(=O)CSc2nc3cccnc3n2C)c1,.,0.71,.,3.5,.,-0.3,.,.,-9,.
CC(C)CC1(C(=O)O)NC(c2ccccc2O)C2C(=O)N(C(C)C)C(=O)C21 (centres undefined),-4.0,0.78,-5,1.9,i,0.9,1.0,-1,2,-5
CC[C@@H]1C/C=C\Cc2ccccc2[C@H](C(=O)C[C@H](O)CC(C)=O)OC1=O,-0.9,0.7,-16,5.0,i,1.0,-3.1,4,-8,.
COc1ccc(CCNC(=O)c2cnn3cccnc23)cc1OC,.,0.67,.,-0.9,.,-2.0,.,.,-4,-9
COc1ccc(CC(=O)Nc2cccc(/C(C)=N/NC(=O)C3(C)CC3(Br)Br)c2)cc1 (centres undefined),-6.1,.,-38,.,i,-0.5,0.1,-32,0,8
CCn1nc(C(=O)NNS(=O)(=O)c2ccc(C)cc2)c2ccccc2c1=O,-1.0,0.67,13,0.2,i,0.9,-1.6,1,-1,.
O=C1CS/C(=C/C(=O)c2cccc(Cl)c2)N1,24,0.65,5,14,i,-1.7,-0.7,6,1,3
CCOc1ccc(C(=O)CCC(=O)N2CCN(S(=O)(=O)c3cccc(F)c3)CC2)cc1,-0.3,0.66,-5,1.0,i,-0.5,-3.3,3,0,.
Cc1cccnc1NC(=O)CNC(=O)C12CC3CC(CC(C3)C1)C2,-0.5,0.71,2,-2.9,i,0.0,-4.4,1,-2,-9
O=C(CN1CCCc2ccccc21)N/N=C/c1c(O)ccc2ccccc12,.,.,.,.,i,-0.3,10,.,66,15
O=C(c1cc2nc(-c3ccc(F)cc3)cc(C(F)(F)F)n2n1)N1CCOCC1,.,0.73,.,-11,.,-0.7,.,.,-6,.
COc1ccccc1CCNC(=O)CN1C(=O)NC2(CCCC2)C1=O,-2.2,0.67,5,2.9,i,-0.6,?,3,-9,-9
C=CCN(C(=O)CCC(=O)Nc1cc(C)on1)C(C(=O)NC1CCCC1)c1ccc(OC)c(OC)c1 (centres undefined),-1.0,0.66,7,2.7,i,0.1,-0.8,7,-10,5
Cc1c(CNCCCc2ccccc2)c(C(=O)O)c(C)n1Cc1ccccc1,8.7,0.64,1,1.0,i,0.0,8.6,1,-5,6
C[C@@H]1CCC[C@@]2(O[C@@H](CCO)C[C@H](O)[C@H]2O)O1,8.0,.,19,2.1,i,0.2,-2.4,8,-7,-11
O=C(CS(=O)(=O)c1c[nH]c2ccccc12)Nc1ccc2c(c1)OCCO2,-0.3,0.69,-7,2.1,.,0.1,.,-4,3,4
CC(C)C(=O)Nc1nnc(CSCc2ccccc2F)s1,.,0.68,.,0.0,.,0.9,.,.,1,2
c1ccc2c(SCc3cn4ccccc4n3)nncc2c1,2.6,0.63,-17,2.0,i,0.9,1.5,-13,-2,12
COc1ccc(C(=O)Nc2c(O)ccc3ccccc23)cc1,8.1,0.69,2,6.7,i,0.1,0.5,3,0,-7
Cc1cccc(-n2c(SCC(N)=O)nc3c(c2=O)C2(CCCC2)Cc2ccccc2-3)c1,.,0.72,.,-19,.,0.3,.,.,-1,-14
Clc1cccc(OCCN2CCOCC2)c1,.,0.66,.,1.8,.,0.0,.,.,0,-11
CCCC(=O)Nc1ccc(C(=O)NCCCn2ccnc2)cc1,.,0.73,.,-0.5,.,0.4,.,.,6,-4
CCOc1cc(NC(=S)NCc2ccco2)c(OCC)cc1NC(=O)CC,.,0.74,.,5.3,.,-0.2,.,.,2,13
COc1ccccc1C(=O)NC(=O)COC(=O)CCOc1ccc(C)cc1,-4.4,0.69,1,1.8,i,0.0,-0.1,-1,-2,-1
CN(CC(=O)NCCc1ccc(S(N)(=O)=O)cc1)CC(=O)Nc1cccc(F)c1,-3.6,0.65,6,1.2,i,.,-13,1,.,.
COc1ccc(NS(=O)(=O)c2cc(NC(=O)CNC(=O)c3ccc(C)s3)ccc2Cl)cc1,4.4,0.71,-11,2.6,.,0.5,1.9,-12,12,-6
Cc1ccc(S(=O)(=O)N/N=C/c2cccc(OC3CSC3)c2)cc1,-25,.,-77,.,i,-0.1,-2.6,-56,-4,-9
OCC1(Cc2ccccc2F)CCCN(CC2CCCCC2)C1 (centres undefined),1.3,0.72,-9,2.9,i,1.0,0.8,-2,-1,18
Cc1cc(C)c2[nH]c(=O)c(=O)[nH]c2c1,.,0.67,.,-9.0,.,0.3,.,.,-1,-20
O=C(Nc1nnc(SCc2ccccc2)s1)C1=COCCO1,1.8,0.67,-7,1.4,i,0.9,3.5,-8,-3,4
c1csc(-c2ccn[nH]2)c1,-0.9,0.66,12,2.6,i,0.1,-7.3,7,-8,-7

Other compounds
mol,Ecoli rRNA inh RFP,Ecoli growth,Ecoli rRNA inh OD600,UCH37 inh,FGF22 binding,A1 inh,AF4-AF9 inh,Ecoli rRNA inh,Beta apoptosis,T cruzi inh
O=C(/C=C/c1ccccc1Cl)N1CCOCC1,-1.2,0.71,-3,2.2,i,-3.5,1.7,2,-5,-9
O=C(/C=N/NC(=O)c1ccc(Cl)cc1Cl)c1ccccc1,-6.3,.,9,.,i,-1.1,-8.7,-9,-7,-6
CCCCn1c(CCNC(=O)CCC)nc2ccccc21,1.9,0.7,5,1.6,i,1.5,5.0,5,-4,6
FC(F)(F)c1cc(C(F)(F)F)c2ccc(Oc3ccccc3)nc2n1,.,0.62,.,-0.1,.,-0.6,.,.,1,-2
O=C(COc1ccccc1)Nc1ccc(OC(F)(F)C(F)F)c(NC(=O)COc2ccccc2)c1,.,0.77,.,6.4,.,-0.5,.,.,1,14

This is a subset (hit frequency here may not be typical).
